Imprint erasure: induces erasure of genomic imprints in mouse ES cells; AID 1948; 110,000 compounds, 0.02% hits; Potency, µM (titrated, usually from 60.7 µM), for the others: top-dose activity change, positive = activation, actives largely listed as activators; mouse ES Peg3-LacZ reporter, beta-gal luminescence, 40 h; active = well fitted activation curve with a large enough effect; inconclusive = small, poorly fitted or top-dose-only effect; inactive = no such curve, though single readings can be large or run the other way;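 note: 0% = negative control wells on the plate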
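Gelatin-coated wells received 300 freshly trypsinized female ES cells with a Peg3LacZ-Neo reporter on the maternal allele, then incubated 40 hours at 37C. BetaGlo was added for 5 minutes at room temperature before a single luminescence read.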
IkB sig inh: IkB pathway inhibition in ABC-DLBCL cells. 110,000 compounds, 0.04% hits. ABC-DLBCL IkBa-CBG/CBR dual luciferase ratio, 4 h; response scale: scaled: untreated 0%, proteasome inhibitor 100%. Potency, µM (top dose mostly 57.1 µM), without a hit: at the highest dose IkBa stabilization activation; active = well fitted curve in the direction sought with a large enough effect in the signal ratio, not every such curve was filed as active; inconclusive = small, poorly fitted or top-dose-only effect, or a change in a side signal; the % refers to the signal ratio;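 note: the direction sought is a rising ratio; 0% = basal untreated cells and 100% = reference inhibitor full response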
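In this assay, an IκBα–CBG68 fusion accumulates when IKK-driven degradation is blocked; native CBR normalizes for cell number. OCI-Ly3 cells were treated 4 h with compound and doxycycline, then green and red light read after Chroma-Glo addition.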
Active calls of the source: *; ? = inconclusive; · = no result given; & = joins results of further samples; [ ] = remark or other dose. Potency is the fitted concentration of half-maximal effect. An excerpt, and most or all hits are left out here.

SMILES	Imprint erasure	IkB sig inh
O=C(O)Cc1cc(I)c(Oc2ccc(O)c(I)c2)c(I)c1	-10.2%[16.8 µM]	1.2%[25.6 µM]
COc1ccc(CCN(C)CCCN2CCc3cc(OC)c(OC)cc3CC2=O)cc1OC	-13.8%&-11.0%	·
COc1cccc2sc(N)nc12	6.4%	7.8%
CCC(=O)c1c(O)cc(O)cc1O	-11.7%	·
O=c1oc2cc(O)ccc2s1	-5.2%	·
C#C[C@]1(O)CCC2C3CCC4=CC(=O)CCC4C3CC[C@@]21C (some centres undefined)	-17.5%	·
C=C(C)C(=O)OCC(C)O (centres undefined)	-1.5%	-1.9%
Cc1ccc(NC(=O)c2sc(-n3nc(C)c(Cc4ccc5c(c4)OCO5)c3C)nc2C)cc1Cl	-5.9%[10.9 µM]	0.0%
CCN(CC)CCNC(=O)c1ccc(N)cc1	-7.2%	-1.2%[25.6 µM]
C#C[C@@]1(O)CC[C@@H]2[C@@H]3CCC4=C(CCC(=O)C4)[C@H]3CC[C@]21C	-7.6%[16.8 µM]	4.2%[25.6 µM]
CC1(C)S[C@@H]2[C@H](NC(=O)C3(N)CCCCC3)C(=O)N2[C@H]1C(=O)O	-9.5%[16.8 µM]	-0.6%[25.6 µM]
Nc1nc2c(c(=O)[nH]1)N(C=O)[C@H](CNc1ccc(C(=O)N[C@@H](CCC(=O)O)C(=O)O)cc1)CN2	5.2%[16.8 µM]	-0.4%[25.6 µM]
CNCC(O)c1cccc(O)c1 (centres undefined)	-2.6%	·
Cc1ccc(C(C)C)cc2c(C)ccc1-2	-12.7%	·
O=c1cc(-c2ccc(O)c(O)c2)oc2cc(O)cc(O)c12	-23.3%	?
O=C(O)CCCCC(=O)O	1.9%	0.9%
CCOc1ccc(NC(N)=O)cc1	6.1%	-0.4%
CC(=O)c1ccc([N+](=O)[O-])cc1	-4.1%	0.3%
COc1ccc(Nc2cc(C(=O)NC3CCCC3)c3ccccc3n2)c(OC)c1	-10.2%[10.9 µM]	-0.2%
CCC(=O)O[C@@H]1[C@H](C)O[C@H](O[C@H]2[C@@H](N(C)C)[C@H](O)[C@@H](O[C@@H]3[C@@H](CC=O)C[C@@H](C)[C@@H](O)/C=C\C=C/C[C@@H](C)OC(=O)C[C@@H](OC(=O)CC)[C@H]3OC)O[C@H]2C)C[C@]1(C)O	-12.1%[16.8 µM]	0.5%[25.6 µM]
CN=C(NC#N)NCCSC[C@H]1N=CN=C1C	-0.6%[16.8 µM]	0.2%[25.6 µM]
C[C@H]1[C@H]2CC[C@H]3C4CC=C5C[C@@H](N(C)C)CC[C@]5(C)C4CC[C@]23CN1C (some centres undefined)	-2.7%	·
Nc1nc(-c2ccccc2)cs1	-25.5%	1.8%
O=C(O)CCCC[C@@H]1SC[C@H]2NC(=O)N[C@@H]12	-5.1%	·

Five compounds from above, arranged by their value in Imprint erasure, largest number first:
Compound,Imprint erasure
CCOc1ccc(NC(N)=O)cc1,6.1%
CNCC(O)c1cccc(O)c1 (centres undefined),-2.6%
C[C@H]1[C@H]2CC[C@H]3C4CC=C5C[C@@H](N(C)C)CC[C@]5(C)C4CC[C@]23CN1C (some centres undefined),-2.7%
Cc1ccc(C(C)C)cc2c(C)ccc1-2,-12.7%
Nc1nc(-c2ccccc2)cs1,-25.5%

(continued)
SMILES	Imprint erasure	IkB sig inh
OCCN(CCO)c1nc(N2CCCCC2)c2nc(N(CCO)CCO)nc(N3CCCCC3)c2n1	-21.6%	?
O=C(COc1ccc(Cl)cc1)N1CCN(Cc2ccc3c(c2)OCO3)CC1	-9.8%	0.3%[25.6 µM]
CCc1ccccc1O	8.2%	1.5%
C=CCOC(=O)COCCC(C)C	3.9%	1.3%
CSc1ccc(S(=O)(=O)NCc2ccccc2Cl)cc1	-12.3%	3.3%
CCCCCCCCCCCCC1CO1 (centres undefined)	0.3%	-0.2%
CCN1CCN(C(=O)NC(C(=O)NC2C(=O)N3C2SC(C)(C)C3C(=O)O)c2ccccc2)C(=O)C1=O (centres undefined)	-6.0%	·
CCC[C@@H]1C[C@@H](C(=O)NC(C(C)Cl)[C@H]2O[C@H](SC)[C@H](O)[C@@H](O)[C@H]2O)N(C)C1 (some centres undefined)	-5.8%	·
OC1CCCC1	-1.9%	-2.5%
CC(C)NC[C@H](O)c1ccc(O)c(O)c1	-10.3%	0.0%
Cc1oc(C(=O)Nc2ccc(O)cc2)cc1COc1ccccc1	5.8%	5.4%
NC(=O)c1ccccc1	-15.7%&1.2%	-1.2%&6.9%

5 entries from above, with bars between the fields:
SMILES | Imprint erasure | IkB sig inh
CCN1CCN(C(=O)NC(C(=O)NC2C(=O)N3C2SC(C)(C)C3C(=O)O)c2ccccc2)C(=O)C1=O (centres undefined) | -6.0% | ·
CCC[C@@H]1C[C@@H](C(=O)NC(C(C)Cl)[C@H]2O[C@H](SC)[C@H](O)[C@@H](O)[C@H]2O)N(C)C1 (some centres undefined) | -5.8% | ·
OC1CCCC1 | -1.9% | -2.5%
CC(C)NC[C@H](O)c1ccc(O)c(O)c1 | -10.3% | 0.0%
Cc1oc(C(=O)Nc2ccc(O)cc2)cc1COc1ccccc1 | 5.8% | 5.4%

Later entries.
SMILES	Imprint erasure	IkB sig inh
CO[C@]1(NC(=O)Cc2cccs2)C(=O)N2C(C(=O)O)=C(COC(N)=O)CS[C@H]21	6.1%[16.8 µM]	-0.3%[25.6 µM]
O=C=Nc1ccc(Cc2ccc(N=C=O)cc2)cc1 (tested in a mixture with another compound)	0.6%[10.9 µM]	-0.8%[11.4 µM]
NC(Cc1c[nH]c2ccccc12)C(=O)O (centres undefined)	-5.8%	·
O=C1NC(O)=NC1(c1ccccc1)c1ccccc1	-5.5%	-5.3%
Cc1onc(-c2ccccc2)c1-c1ccc(S(N)(=O)=O)cc1	-5.7%	·
CO[C@H]1/C=C/O[C@@]2(C)Oc3c(C)c(O)c4c(O)c(c(/C=N/N5CCN(C)CC5)c(O)c4c3C2=O)NC(=O)/C(C)=C\C=C\[C@H](C)[C@H](O)[C@@H](C)[C@@H](O)[C@@H](C)[C@H](OC(C)=O)[C@@H]1C	-6.1%	-1.2%
